HSV augment: increases HSV replication in cells; HSV replication augmentation in cells, fold increase; AID 1956; maximum fold increase; actives 0.005% (n = 220,000);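 active = peak rise of 1.5-fold or more in the series; tested in PC3 cells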;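 also: first round at 10 µM; read as green reporter fluorescence; hits show the peak of a series up to 25 µM; 1 = signal of infected wells without compound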
INS promoter inh: TRM-6 insulin promoter activity inhibition; actives 0.9% (n = 130,000); inhibition, % at 2 µM; TRM-6 cells (human fetal islet line), insulin promoter-eGFP reporter, imaging; reporter expression induced with tamoxifen;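 active = inhibition above the mean plus 3 SD, with well images judged a real hit on visual review, cut at about 60% in these data, passing the limit was not always enough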
PKD1 inh: inhibitors of human PKD1 kinase; Q15139; PKD1 kinase fluorescence polarization assay; inhibition, %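 (about 10 µM by stock and volumes)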; actives 0.056% (n = 200,000); AID 797;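 active = inhibition of 50% or more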;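 also: controls were vehicle for no effect and a reference inhibitor for full effect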
Target sequence (Q15139 whole entry, looked up): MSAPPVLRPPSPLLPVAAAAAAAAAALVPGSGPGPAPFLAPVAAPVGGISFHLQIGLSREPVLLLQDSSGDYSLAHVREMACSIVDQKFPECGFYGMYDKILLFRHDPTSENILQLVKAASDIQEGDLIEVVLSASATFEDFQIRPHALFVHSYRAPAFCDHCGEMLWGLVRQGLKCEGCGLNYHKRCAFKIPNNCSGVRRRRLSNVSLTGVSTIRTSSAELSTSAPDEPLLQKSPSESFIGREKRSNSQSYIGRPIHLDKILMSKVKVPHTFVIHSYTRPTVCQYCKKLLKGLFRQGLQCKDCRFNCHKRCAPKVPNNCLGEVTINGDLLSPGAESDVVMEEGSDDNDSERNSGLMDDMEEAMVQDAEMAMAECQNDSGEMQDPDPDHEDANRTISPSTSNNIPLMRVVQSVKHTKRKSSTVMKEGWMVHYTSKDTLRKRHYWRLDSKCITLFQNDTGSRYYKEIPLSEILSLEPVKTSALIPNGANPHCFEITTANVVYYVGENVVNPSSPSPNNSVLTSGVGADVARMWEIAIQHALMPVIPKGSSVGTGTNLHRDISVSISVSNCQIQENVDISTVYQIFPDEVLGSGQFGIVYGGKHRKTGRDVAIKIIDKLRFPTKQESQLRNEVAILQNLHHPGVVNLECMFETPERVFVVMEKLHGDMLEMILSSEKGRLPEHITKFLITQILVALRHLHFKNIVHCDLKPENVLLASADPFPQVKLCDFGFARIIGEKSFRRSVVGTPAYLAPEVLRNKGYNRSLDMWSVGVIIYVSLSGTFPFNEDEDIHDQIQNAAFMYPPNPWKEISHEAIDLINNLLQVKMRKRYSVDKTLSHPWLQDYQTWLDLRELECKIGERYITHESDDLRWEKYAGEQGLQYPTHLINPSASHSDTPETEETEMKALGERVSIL
RGS16-Gao HTS: regulators of human RGS16-Galphao interaction | actives 0.38% (n = 220,000) | O15492+P09471 | binding response (% of control), % at 10 µM | AID 1441 | bead-based flow cytometry RGS16-Galphao binding, fluorescence; actives lie on both sides;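 active = below 25% or above 175%, edge rows of some plates excepted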;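 also: Galphao activated by GDP with aluminum fluoride before binding; 100% = wells without compound and 0% = beads without RGS; some results beyond the cut were filed as inactive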
GALR2 ag: agonists of human galanin receptor 2 (GALR2); GALR2-expressing cells, agonist activation read-out; O43603; activation, %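 (tested at 5 µM)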; actives 0.48% (n = 140,000);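 active = above mean plus 3 SD of all compounds, about 5% in these data, not always enough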;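 also: 0% = vehicle buffer wells and 100% = reference agonist at full effect; tested in CHO reporter cells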
INS promoter inh cell count: second read-out of INS promoter inh, no call of its own (marks repeat the call); normalized cell count, %; measured here: cell count, toxicity; reference of the scale not given here;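 cells exposed to compound for 48 h; stained nuclei by imaging scaled within each plate; lower means fewer cells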
HSV augment primary fold: second read-out of HSV augment, no call of its own (marks repeat the call); fold increase; compound at 10 µM; measured here: primary screen fold increase 10 uM; tested in PC3 cells;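 GFP signal in the first replicate; 1 = infected wells without compound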
The depositor's hits bear a star; i = inactive; x = not tested or not shown. Rows are unselected. Share with any hit: about 1.3%.

SMILES	HSV augment	HSV augment primary fold	INS promoter inh	INS promoter inh cell count	PKD1 inh	RGS16-Gao HTS	GALR2 ag
Cc1ccc(NC(=O)CSc2nnc(-c3ccncc3)o2)cc1	i	0.9	25.7	48.6	-4.5	99.4	-1.5
COc1cccc2c(=O)c(SC(F)(F)C(F)C(F)(F)F)c(C)[nH]c12 (configuration not stated)	i	0.88	x	x	1.4	83.8	-3.1
O=C1C2C3C=CC(C3)C2C(=O)N1/N=C/c1cn(Cc2ccccc2)c2ccccc12 (configuration not stated)	i	0.89	0.0	35.8	2.6	99.7	-1.2
COc1cc(OC)c(C(=O)OCC(=O)N(Cc2ccccc2)C(C)(C)C)cc1OC	i	1.06	x	x	0.0	102.9	x
COc1ccc(-c2nnn(CC(=O)N3CCN(c4ccccc4OC)CC3)n2)cc1	i	1.01	2.3	110.0	-5.0	108.4	-0.8
O=C(NCc1ccccc1)c1ccc(N2C(=O)C3CCCCC3C2=O)cc1 (configuration not stated)	i	1	4.6	42.1	3.6	126.3	-1.0
N#C/C(=C\c1ccc2c(c1)OCO2)C(N)=S	i	0.89	x	x	x	97.8	x
Cc1ccc(CNC(=O)CN2CCN(Cc3ccc(C)cc3)C2=O)cc1	i	0.81	3.2	53.2	-5.4	101.3	-0.5
Cc1onc(C(=O)NCc2ccc(F)cc2)c1[N+](=O)[O-]	i	1	x	x	0.1	96.5	x
Nc1nnc(-c2ccccc2F)s1	i	1.01	x	x	-3.2	99.8	x
COc1ccc(COC(=O)NC2CCN(S(=O)(=O)c3ccc(OC)cc3)CC2)cc1	i	0.76	35.7	70.7	4.5	102.1	-3.3
COc1ccccc1C(=O)Nc1ccc(-c2nnn(CC(=O)N3CCOCC3)n2)cc1	i	0.96	15.0	134.3	-6.3	100.2	x
CNS(=O)(=O)c1cc(C(=O)O)ccc1OC	i	1.27	x	x	-9.6	100.0	x
CCOC(=O)c1c(NC(=O)CN2CCCCC2)sc(CN(C)C)c1-c1ccccc1	i	0.98	-3.7	84.4	2.1	100.4	x
Cc1ccc(NC(=O)C2CC(Cl)=CCC2C(=O)O)c([N+](=O)[O-])c1 (configuration not stated)	i	1	x	x	-9.0	95.8	x
Cc1cccc(C)c1NC(=O)C(c1ccccc1)N1CCC1=O (configuration not stated)	i	0.8	x	x	0.1	113.0	-1.5
Cc1ccc(NC(=O)CSCc2ccc(F)cc2)cc1	i	1.13	x	x	4.8	102.2	-1.1
O=C1N/C(=C\c2ccc(N3CCOCC3)c(F)c2)C(=O)N1Cc1ccccc1	i	0.98	x	x	8.6	98.6	-1.3
COC(=O)[C@@H]1C[C@H]2CC[C@H](O)C[C@H]2N1Cc1ccccc1OC(=O)c1cccs1	i	0.85	x	x	x	102.5	x
COc1nc(-c2ccccc2)ccc1-c1noc(-c2ccco2)n1	i	1.07	-2.7	105.3	-2.5	101.1	-1.3
Cc1ccc(NC(=S)N2CCc3[nH]c4ccccc4c3C2)cc1	i	0.87	x	x	x	98.7	x
O=C(CSc1nc2ccccc2nc1SCC(=O)N1CCCCC1)N1CCCCC1	i	0.69	x	x	-8.4	61.8	-0.7
Cc1cc(C)n(-c2ccc(F)cc2)c(=O)c1C#N	i	0.88	x	x	0.3	97.0	x
COc1ccc(C(=O)NC2CCN(S(=O)(=O)Cc3ccccc3)CC2)c(OC)c1	i	0.81	6.1	96.2	3.7	102.5	0.4
CC(C)C(NC(=O)C12CC3CC(CC(C3)C1)C2)C(=O)O (configuration not stated)	i	1.01	9.1	106.8	-9.6	103.0	-0.8
CC(NC(=O)c1ccc(F)cc1)C(=O)NC1=NCCS1 (configuration not stated)	i	0.95	-58.8	83.7	-4.5	103.6	x
N#CC1=C(SCC(=O)Nc2ccc(C(=O)O)cc2)NC(=O)CC1c1ccco1 (configuration not stated)	i	1.02	x	x	x	101.3	x
COc1ccc(N2CC(O)(c3ccc(C)cc3)[N+]3=C2CCCC3)cc1 (configuration not stated)	i	0.97	-66.7	45.3	2.2	99.1	x
Nc1nnc(SCC(=O)Nc2cc(S(=O)(=O)N3CCOCC3)ccc2Cl)s1	i	0.93	x	x	-0.6	101.3	x
O=C(O)c1cc2nc(-c3cccs3)cc(C(F)(F)F)n2n1	i	0.99	44.4	134.6	-6.9	101.2	x
O=c1nc(N2CCCCC2)nc(Nc2ccccc2)[nH]1	i	0.94	-37.1	132.3	-6.4	84.8	0.5
O=C(NC12CC3CC(CC(C3)C1)C2)c1ccccc1O	i	0.88	-37.8	90.8	-6.6	100.7	-1.3
O=C(C[n+]1ccc(C(=O)N/N=C/c2ccc(Br)cc2)cc1)c1ccccc1	i	0.8	x	x	2.3	73.0	0.8
Oc1ccc(/C=N/N(Cc2ccccc2)c2ccccc2)c(O)c1O	i	1.09	-7.7	53.5	4.0	70.4	x
Cc1ccccc1NC(=O)Cc1nc(-c2ccc3ccccc3c2)cs1	x	x	x	x	-6.7	104.1	-1.5
O=C(Nc1cccnc1)c1ccc(COc2cc(Cl)ccc2Cl)o1	i	0.807	-12.8	94.3	-4.2	108.4	-1.4
Cc1cc(Nc2ccc(C)c(Cl)c2)nc(N2CCOCC2)n1	i	0.77	x	x	x	92.5	x
COC(=O)c1nc(N)sc1-c1ccc(Cl)cc1	i	0.94	-18.2	81.3	0.6	107.9	x
COc1ccc(NC(=S)N(Cc2cccnc2)Cc2cc3cc(OC)c(OC)cc3[nH]c2=O)cc1	i	1.06	x	x	0.0	101.7	x
CC(=O)Nc1nnc(SCC(=O)NC(C)(C)C)s1	i	1	x	x	3.0	97.3	-2.6
CC(C)C1N=C2c3ccccc3N=C(SCC(=O)NCCc3ccc(S(N)(=O)=O)cc3)N2C1=O (configuration not stated)	i	0.73	x	x	-8.5	100.3	-2.3
O=C(c1cc2ccccn2n1)N1CCN(Cc2ccccc2)CC1	i	0.88	x	x	-7.1	102.5	x
Cc1cc(OCC(=O)Nc2ccc(S(=O)(=O)N3CCN(C)CC3)cc2)ccc1Cl	i	0.903	-323.3	47.9	-2.1	81.8	-1.7
O=C(CNC(=O)c1ccc(Br)o1)OCC(=O)c1cccc([N+](=O)[O-])c1	i	0.99	x	x	1.6	104.5	x
O=C(Nc1ccn(Cc2ccccc2)n1)c1ccc(F)cc1	i	1.01	x	x	-0.6	98.9	x
O=c1cnnc(Nc2ccc(F)cc2)[nH]1	i	0.99	-11.1	82.5	-6.3	98.3	x
O=[N+]([O-])c1ccc(F)cc1Oc1nc(-c2cccnc2)nc2ccccc12	i	1.05	x	x	-4.2	96.8	x
CC(C(=O)O)c1cccc(C(=O)c2ccccc2)c1 (configuration not stated)	i	1	15.6	99.7	-21.6	101.9	-0.3
O=C(CN1C(=O)c2cccnc2C1=O)c1ccccc1	i	0.95	0.0	110.4	2.4	99.8	-0.5
Cc1ccc(-c2[nH]nc3c2C(c2ccc(OC(=O)N4CCOCC4)cc2)C(C#N)=C(N)O3)cc1 (configuration not stated)	i	1.09	-56.2	114.7	1.5	99.8	-1.9
O=C(Nc1ccc2c(c1)CCC2)C1COc2ccccc2O1 (configuration not stated)	i	0.82	x	x	-3.5	53.6	-0.8
CCC(C)NC(=O)c1c(-c2cc(Cl)c(OC)c(Cl)c2)noc1C (configuration not stated)	x	x	25.0	78.9	0.3	115.1	-0.3
CC(C)Cc1cc(CN2CCC(CO)(Cc3cccc(C(F)(F)F)c3)CC2)[nH]n1	i	0.89	18.8	96.0	-1.7	100.2	x
COc1cc(/C=N/NC(=O)c2ccc(CN3c4cccc5cccc(c45)S3(=O)=O)cc2)cc(OC)c1O	i	0.84	x	x	-8.8	99.8	x
O=S(=O)(c1ccc2ccccc2c1)N(CC(O)CN1CCOCC1)c1ccccc1 (configuration not stated)	i	1.03	8.7	100.4	-5.6	96.3	-0.1
COc1ccc(NC(C)C(=O)N/N=C/c2ccccc2OCc2ccc(Br)cc2)cc1 (configuration not stated)	i	1.02	10.8	53.7	0.7	92.7	-1.9

Other results follow:
SMILES	HSV augment	HSV augment primary fold	INS promoter inh	INS promoter inh cell count	PKD1 inh	RGS16-Gao HTS	GALR2 ag
Cc1[nH]nc2c1C(c1ccsc1)C1=C(CC(C)(C)CC1=O)N2 (configuration not stated)	i	0.73	x	x	3.0	108.2	x
Cc1cc(C)n(-c2ccc(C(=O)N3CC(C)OC(C)C3)cc2)n1 (configuration not stated)	i	0.98	-5.0	142.2	1.9	37.8	x
CC[C@@H](Nc1ncnc2c1oc1ccccc12)C(=O)O	i	1.12	x	x	x	102.5	x
O=C(NCCN1CCOCC1)c1ccc2ccccc2c1	x	x	-13.5	174.8	-2.8	103.2	-3.0
CCOc1ccc(C(C)=O)cc1Cn1nc(C(=O)O)c2ccccc2c1=O	i	0.84	x	x	10.8	106.5	-1.1
CCN(CC)C(=S)Nc1c(C)n(C)n(-c2ccccc2)c1=O	i	1.02	x	x	-3.6	92.8	x
COc1ccc(/C=C/C(=O)Nc2ccc(C34CC5CC(CC(O)(C5)C3)C4)cc2)cc1OC	i	0.67	0.0	84.2	-0.6	112.2	-0.5
CN(CC(O)COC(c1ccccc1)c1ccccc1)C1CCCCC1 (configuration not stated)	i	0.83	-94.4	160.9	-5.0	115.8	x
CN(C(=O)COc1cc(=O)n(C)c2ccccc12)c1ccc(Br)cc1	i	0.95	x	x	-9.7	98.7	-0.1
CC(C)(C)C1CCc2onc(C(=O)O)c2C1 (configuration not stated)	i	1.02	x	x	-5.6	100.2	x
CC(C)C(=O)Nc1cccc(NC(=O)c2cccc([N+](=O)[O-])c2)c1	i	0.82	27.8	105.3	6.2	98.2	-1.3
CC(C)CCOc1ccc(C(=O)CCNC(C)C(=O)O)cc1 (configuration not stated)	i	0.83	-28.1	122.0	3.9	100.3	-1.3

Structural class: the compounds so far containing an NH in an aromatic ring.
SMILES	HSV augment	HSV augment primary fold	INS promoter inh	INS promoter inh cell count	PKD1 inh	RGS16-Gao HTS	GALR2 ag
COc1cccc2c(=O)c(SC(F)(F)C(F)C(F)(F)F)c(C)[nH]c12 (configuration not stated)	i	0.88	x	x	1.4	83.8	-3.1
Cc1ccc(NC(=S)N2CCc3[nH]c4ccccc4c3C2)cc1	i	0.87	x	x	x	98.7	x
O=c1nc(N2CCCCC2)nc(Nc2ccccc2)[nH]1	i	0.94	-37.1	132.3	-6.4	84.8	0.5
COc1ccc(NC(=S)N(Cc2cccnc2)Cc2cc3cc(OC)c(OC)cc3[nH]c2=O)cc1	i	1.06	x	x	0.0	101.7	x
O=c1cnnc(Nc2ccc(F)cc2)[nH]1	i	0.99	-11.1	82.5	-6.3	98.3	x
Cc1ccc(-c2[nH]nc3c2C(c2ccc(OC(=O)N4CCOCC4)cc2)C(C#N)=C(N)O3)cc1 (configuration not stated)	i	1.09	-56.2	114.7	1.5	99.8	-1.9
CC(C)Cc1cc(CN2CCC(CO)(Cc3cccc(C(F)(F)F)c3)CC2)[nH]n1	i	0.89	18.8	96.0	-1.7	100.2	x
Cc1[nH]nc2c1C(c1ccsc1)C1=C(CC(C)(C)CC1=O)N2 (configuration not stated)	i	0.73	x	x	3.0	108.2	x
